# Vaccinia mCherry – qHTS for Stage-Specific Inhibitors of Vaccinia Orthopoxvirus: mCherry Reporter Primary qHTS; Vaccinia virus mCherry reporter infection, fluorescence; about a quarter of the inactives have no number; Potency, µM (titrated, usually from 36.5 µM), inactives show top-dose activity change, negative = inhibition, actives largely listed as inhibitors; 310,000 tested, 0.63% active; AID 720579, 2013; active = well fitted inhibition curve with a large enough effect; inconclusive = small, poorly fitted or top-dose-only effect; inactive = no such curve, though single readings can be large or run the other way; tested in A549 cells; note: nearly all actives have a fitted effect of over 35% in size; inactives centre near -10
# VACV Venus inh – qHTS for Stage-Specific Inhibitors of Vaccinia Orthopoxvirus: Venus Reporter Primary qHTS | Vaccinia virus Venus reporter expression, fluorescence | Potency, µM (series often up to 36.5 µM), for inactives: at the top dose activity change, negative = inhibition, hits mostly inhibitors | 330,000 tested, 0.46% active | AID 720580, 2013; active means well fitted inhibition curve with a large enough effect; inconclusive means small, poorly fitted or top-dose-only effect; inactive means no such curve, though single readings can be large or run the other way; tested in A549 cells; note: nearly all actives have a fitted effect of over 30% in size; inactives centre near -10
# Active calls of the source: *; i = inactive; ? = inconclusive; . = no result given; & = joins results of further samples; [ ] = dose if it differs, or a comment. % is set by controls: 0 for no effect and ±100 for the full control effect; potency is the fitted concentration of half-maximal effect.
# Every second line gives: Vaccinia mCherry | VACV Venus inh
CC(=O)NC12CC3CC(C1)CC(C(=O)OCC(=O)c1cc(C)n(C)c1C)(C3)C2
 : -1% | -11%
O=S(Cc1ccc(Br)cc1)Cc1nnc(SCc2ccc(Cl)cc2)n1-c1ccccc1 (centres undefined)
 : i | ?
Cc1cccc(NC(=O)Cn2c(/C=C/c3ccccc3)nc3ccccc32)c1
 : -19% | -20%
Cc1ccc(SC(c2ccc(C)cc2)C(Cn2cncn2)C(=O)c2ccccc2)cc1 (centres undefined)
 : . | -9%
COc1ccc(C)cc1NC(=O)c1ccc(NS(=O)(=O)c2c(C)noc2C)cc1
 : -15%&-14% | -4%&-10%
CN(CC(=O)Nc1ccc(Cl)cc1F)C1=NS(=O)(=O)c2ccccc21
 : -14% | -12%
CC12CCC(C(=O)N(c3ccccc3Cl)C1=O)C2(C)C (centres undefined)
 : -22% | -16%
NC(=O)NC(CC(=O)OCC(=O)NC(=O)NCc1ccco1)c1ccc(Cl)cc1 (centres undefined)
 : . | -13%
CCOc1[nH]c(/N=C/c2ccco2)c(C#N)c1C#N
 : -21% | 5%&-27%
Cc1ccc(/C(=N\S(=O)(=O)c2ccc(Br)cc2)Nc2ccccc2C)cc1
 : -13% | -1%
Cc1cc(C(=O)CN2C(=O)NC(C)(c3cccc(Br)c3)C2=O)c(C)n1Cc1ccco1 (centres undefined)
 : . | -33%
NC1=C(Br)C(=O)c2ncccc2C1=O
 : ? | 2.5µM*
COc1ccc(OC)c(CNC(=O)CN2N=C(c3ccc(Cl)cc3)CCC2=O)c1
 : -5% | -2%
CCOC(=O)C1CCN(c2ncnc3c2nc2n3CCCCC2)CC1
 : 8% | 0%
CCOC(=O)c1cc(CC)sc1NC(=O)c1ccc2c(c1)OCCO2
 : -25% | -11%
O=C1N(Cc2ccc(F)cc2Cl)c2ccccc2C12OCCCO2
 : -9% | -12%
OC(c1ccccc1)(c1ccc(F)cc1)C(c1ccccc1)N1CCOCC1 (centres undefined)
 : . | -15%
S=C(Nc1ccccn1)c1ccccn1
 : ? | ?
Cc1c(/C=N\NC(=O)C2COc3ccc(C(C)(C)C)cc3O2)c2ccccc2n1C (centres undefined)
 : ? | -22%
Cc1ccc(NC(=O)CCC(=O)N2Cc3ccccc3Oc3ncccc32)cc1F
 : 2% | -6%
CCOC(=O)C1=C(N)Oc2c(oc(CO)cc2=O)C1c1ccccc1 (centres undefined)
 : -4% | -9%
O=S(=O)(NCC1CCCO1)c1ccccc1F (centres undefined)
 : i | 1%
O=C1CC2CS(=O)(=O)CC2N1c1ccc(Oc2ccccc2)cc1 (centres undefined)
 : i | -7%
COc1ccc(Oc2cccc(Cl)c2CNC(=O)CCC(=O)O)cc1
 : -21% | 0%
Nc1nc(N)c2snnc2n1
 : 30% | -20%
O=C1CC(c2ccc(Cl)cc2)Oc2ccc(Cl)cc21 (centres undefined)
 : -25% | -17%
CCOc1ccccc1NC(=O)C1C2CCC(O2)C1C(=O)O (centres undefined)
 : -8% | -17%
Cc1ccc(CN2CCN(Cc3ccc(C)s3)CC2CCO)cc1 (centres undefined)
 : -27% | -7%
CCOC(=O)C1=C(C)N=C2SC(C)C(=O)N2C1c1ccc(OCC)c(OCC)c1 (centres undefined)
 : -12% | -5%
CN(C)C=NC(=O)c1cc(C(=O)c2ccccc2Cl)c[nH]1
 : i | -9%
CCCNC(=O)C[C@H]1CC[C@@H]2[C@H](COC[C@@H](O)CN2C(=O)c2ccccn2)O1
 : 4% | -1%
CN(C)/C=C(\C#N)C(=O)Nc1ccc(F)cc1
 : . | -14%
COc1cccc(-n2c(Cc3cc(=O)[nH]c(=O)[nH]3)nnc2SCC(=O)N2CCCCC2)c1
 : -12% | -3%
Cc1ccc(-n2c(SCC(N)=O)nnc2-c2cccnc2)c(C)c1
 : -10% | 0%
O=C(c1ccc(F)cc1)C1CCN(Cc2cn[nH]c2-c2ccc(F)cc2)CC1
 : ? | 1%
COc1ccccc1-c1cc(C(=O)N2CCCCC2C)no1 (centres undefined)
 : -7% | -5%
CCC(c1nnnn1C1CCCC1)N1CCC2(CC1)C(=O)NCN2c1ccccc1 (centres undefined)
 : 11% | -6%
Cc1ccccc1S(=O)(=O)NC(=O)C1(C)CCN1C(=O)CCc1ccccc1 (centres undefined)
 : 39%[activator] | -8%
CC(C)C(NC(=O)Nc1ccccc1)C(=O)Nc1cccc(S(=O)(=O)N(C)C)c1 (centres undefined)
 : -23% | -18%
Cc1ccccc1-n1c(C)n[nH]c1=S
 : -13% | 0%
CCOc1cc2sc(N3CCC(C(=O)Nc4cc(C)cc(C)c4)CC3)nc2cc1Br
 : -26% | -26%
CCCCc1nn(-c2cc(Cl)ccc2OC)c2c1C(=O)CCC2
 : i | -23%
O=S(=O)(c1ccccc1)c1nc(-c2ccco2)oc1NCc1cccnc1
 : . | -9%
COc1ccc(C[C@H]2CN3C(=NC[C@H]3C)N2CCNC(=O)CCC2CCCCC2)cc1
 : 0% | -9%
CC(=O)Nc1ccc(CN2CCC2(C)C(=O)NC2CCN(Cc3ccccc3)CC2)cc1 (centres undefined)
 : 49%[activator] | 1%
COc1ccc(-c2c(C)[nH]n3c(=O)c(Cc4ccccc4)c(C)nc23)cc1
 : ? | ?
C=C(C)c1cccc(C(C)(C)NC(=O)N2CCN(C/C=C/c3ccccc3)CC2)c1
 : -21% | -17%
COc1ccc2[nH]c(=O)c(CN(Cc3nnnn3Cc3ccc(F)cc3)CC3CCCO3)cc2c1 (centres undefined)
 : -20%[1.46 µM] | ?
CC(=O)c1c(C)[nH]c(C(=O)OCC(=O)N2CC(C)OC(C)C2)c1C (centres undefined)
 : i | -9%
Cc1ccc(C)c(N(CC(=O)NCc2ccco2)C(=O)CCC(=O)Nc2ccccn2)c1
 : . | -18%
Oc1cc(Cl)cc(Cl)c1Cl
 : -5% | -17%
CC(C)(C)OC(=O)N1CCC(c2c(C(=O)O)cnn2-c2ccc(Cl)cc2)CC1
 : i | -12%
O=C(NCc1ccc(F)cc1)C(c1cccnc1)N(C(=O)c1csnn1)c1ccccc1 (centres undefined)
 : 3% | -14%
CCCSc1nnc(-c2ccccc2N)c(=O)[nH]1
 : i | -3%
O=C(O)C1C2C=CC(C2)C1C(=O)NCCc1cccc(Cl)c1 (centres undefined)
 : i | -29%
CCN(CC)c1ccc(C=Nc2cccc(S(=O)(=O)N3CCOCC3)c2)c(O)c1
 : -19% | -17%
CCCCCC(=O)Nc1cccc(C2=NOC3(C2)C[C@@H](C(N)=O)N(C(=O)c2cc([N+](=O)[O-])cc([N+](=O)[O-])c2C)C3)c1 (some centres undefined)
 : -3% | -7%
COC(=O)C1CCN(CC(=O)NC(=O)NC2CCCCC2)CC1
 : ? | -10%
C=CCn1c(=O)c(C=Nc2cccc([N+](=O)[O-])c2)c(O)n(CCCC)c1=O
 : -17% | -16%
O=C(Nc1ccccc1N1CCOCC1)c1cccc2ccccc12
 : -1% | ?

# Remaining list, next part.
# Every second line gives: Vaccinia mCherry | VACV Venus inh
Cc1cccc(Nc2nnc(SCC(=O)c3ccc(Br)s3)s2)c1C
 : -7% | -15%
C=CC[C@@H](CC(=O)N[C@H](CO)Cc1ccccc1)C(=O)N[C@H](COC(=O)[C@@H](CC=C)Cc1ccc(F)cc1)Cc1c[nH]c2ccccc12
 : ? | ?
O=C(/C=C/c1ccccc1[N+](=O)[O-])NCCCN1CCCC1=O
 : -10% | -18%
O=C(CCCc1ccccc1)NC1CC1
 : -14% | 4%
O=C(CCCn1c(=O)c2cccn2c2ccccc21)NCc1ccccc1Br
 : -8% | -12%
CCN1CCN(S(=O)(=O)c2ccc(S(=O)(=O)NCC3CCCO3)cc2)CC1 (centres undefined)
 : -4% | -23%
Cc1ccc(NC(=O)C2CC(=O)NC(Nc3cccc(C)c3)=N2)cc1 (centres undefined)
 : -20% | -5%
CCCCn1c(N)c(N(CC(C)C)C(=O)Cn2c(=O)cnc3ccccc32)c(=O)[nH]c1=O
 : -1% | -12%
Cc1cc(N2C(=O)C(O)=C(C(=O)c3ccc(C)o3)C2c2cccc(Oc3ccccc3)c2)no1 (centres undefined)
 : i | -7%
Cc1cc(C)n(C(=O)COc2ccc(Cl)cc2Cl)n1
 : -9% | -3%
C[C@H](CO)N1C[C@H](C)[C@@H](CN(C)S(=O)(=O)c2cn(C)cn2)Oc2ccc(NC(=O)C3CC3)cc2C1=O
 : -14% | 3%
COc1ccc(OC)c(-c2cc(C(=O)NC(C)c3ccccc3)no2)c1 (centres undefined)
 : -17% | -6%
COCCCNC(=O)C1CC(=O)N(CCc2ccc(OC)c(OC)c2)C1 (centres undefined)
 : -13% | -10%
O=C(NCC1CCCO1)C1CCCN(S(=O)(=O)c2cc(Cl)ccc2Cl)C1 (centres undefined)
 : i | -8%
CN(Cc1cccs1)C(=O)C1CC(=O)N(Cc2ccccc2)C1 (centres undefined)
 : i | -10%
COc1cccc(C(=O)Nc2ccc(-c3nc4ccccc4s3)cc2Cl)c1
 : 24% | 16%
CC1(C(=O)NS(=O)(=O)c2cccc(Cl)c2)CCN1C(=O)CCc1ccc(Cl)cc1Cl (centres undefined)
 : -24% | -29%
O=C1CCCN2N=C(SCC(=O)Nc3cccc(Cl)c3)SC2=N1
 : -19% | -1%
CCC(=O)NCC(c1cccs1)N1CCOCC1 (centres undefined)
 : i | -4%
COc1ccc(OC)c(S(=O)(=O)N2CCC(C(=O)NCCc3ccc(OC)c(OC)c3)CC2)c1
 : . | -22%
O=c1c2ccccc2nc(N2CCN(c3cccc(Cl)c3)CC2)n1-c1ccccc1
 : -25% | -22%
Cc1oc(C(C)(C)C)cc1C(=O)Nc1cccc(/C=C/C(=O)O)c1
 : -11% | -8%
O=C1NC(=O)C2(CCC(C3CCCCC3)CC2)N1 (centres undefined)
 : -17% | -4%
COc1cccc(CNC(=O)CCn2nc(C)c3c(C)n(-c4ccccc4)nc3c2=O)c1
 : -18% | -12%
COc1ccc(NC(=O)CN(C)C(=O)C2=COCCO2)cc1
 : i | -8%
Cc1cccc(OCc2nnc(-c3ccccc3)o2)c1
 : -1% | -3%
O=C(Nc1ccc(Cl)c(C(F)(F)F)c1)c1ccco1
 : -8% | -11%
CCOC(=O)N1CCN(C(=O)CN(c2cc(C)ccc2OC)S(=O)(=O)c2ccc(C)cc2)CC1
 : -7% | -9%
Cc1ccc(S(=O)(=O)NN=C2CC(C)(C)OC2(C)C)cc1
 : i | -3%
CCc1ccc(C(C(=O)NCc2ccc(F)cc2)N(C(=O)c2csnn2)C2CC2)cc1 (centres undefined)
 : ? | 6%
COc1ccc(S(=O)(=O)N2CCOC2CNC(=O)C(=O)NCc2ccccc2Cl)cc1 (centres undefined)
 : -6% | -16%
O=C(NCc1ccccc1)C(c1ccc(O)cc1)N(C(=O)c1cnccn1)c1ccccc1 (centres undefined)
 : -8% | 1%
CCN(C(=O)CSc1nc2ccccc2n1Cc1ccccc1C#N)c1ccccc1
 : -17% | -12%
O=C(Nc1cccc(O)c1)c1ccc(S(=O)(=O)N2CCCCCC2)cc1
 : -2% | -12%
COCc1nnc(N)s1
 : . | -7%
COc1ccc(CCNC(=O)CSc2ccc(-c3ccccc3)nn2)cc1OC
 : -23% | -20%
CCN1C(=O)N[C@@H](c2cccc(C(F)(F)F)c2)[C@H](C(=O)OC)[C@H]1C
 : i | -23%
N#Cc1ccccc1CN1C(=O)NC(Cc2c[nH]c3ccccc23)C1=O (centres undefined)
 : -15% | -7%
CC1(C(=O)NS(=O)(=O)c2cccc(Cl)c2)CCN1C(=O)Cc1ccsc1 (centres undefined)
 : 32%[activator] | 3%
Cc1ccsc1C(=O)OCC(=O)N1CC(=O)Nc2ccccc21
 : -17% | -7%
CCc1ccc(CNC(=O)C2CCN(c3nnc(-n4c(C)ccc4C)s3)CC2)cc1
 : -14% | -21%
O=C(c1cn(-c2ccc(Cl)c(Cl)c2)nn1)C1CC1
 : i | -1%
O=C1c2ccccc2C(=O)N1CCOc1ccccc1Br
 : i | -13%
CCCn1c(N2CCN(C(=O)/C=C/C(=O)O)CC2)nc2ccccc21
 : i | -6%
COc1cc(OC)cc(OCC(O)Cn2ccnc2)c1 (centres undefined)
 : -12% | -8%
CCOC(=O)c1c(CSCc2ccccc2)oc2ccc(O)c(CN(C)C)c12
 : ? | -13%
O=c1cc(COc2ccccc2[N+](=O)[O-])nc2sccn12
 : -20% | -7%
CCc1nnc(NC(=O)C2CCCN(S(=O)(=O)c3ccc(OC)cc3)C2)s1 (centres undefined)
 : -16% | 7%

# Compound activity (PubChem BioAssay)
